VACV mCherry inh: inhibitors of vaccinia virus infection (mCherry reporter signal); Vaccinia virus mCherry reporter infection, fluorescence; about a quarter of the inactives have no number; hit rate 0.63% among 310,000; Potency, µM (top dose mostly 36.5 µM), without a hit: at the highest dose activity change, negative = inhibition, hits mostly inhibitors; active = well fitted inhibition curve with a large enough effect; inconclusive = small, poorly fitted or top-dose-only effect; inactive = no such curve, though single readings can be large or run the other way; tested in A549 cells; also: nearly all actives have a fitted effect of over 35% in size; inactives centre near -10
VACV Venus inh: vaccinia inhibition (Venus reporter); hit rate 0.46% among 330,000; Vaccinia virus Venus reporter expression, fluorescence; Potency, µM (top dose mostly 36.5 µM), for inactives: top-dose activity change, negative = inhibition, usual class: inhibitors; active means well fitted inhibition curve with a large enough effect; inconclusive means small, poorly fitted or top-dose-only effect; inactive means no such curve, though single readings can be large or run the other way; tested in A549 cells; also: nearly all actives have a fitted effect of over 30% in size; inactives centre near -10
* hit, by the source's call; i = inactive; ? = inconclusive; . = no result given; & = joins results of further samples; [ ] = dose if it differs, or a comment. % is scaled to controls: 0 for no effect and ±100 for the full control effect; potency is read from the fitted curve at half-maximal effect.

The first 16 entries, ahead of the listing:
SMILES	VACV mCherry inh	VACV Venus inh
C/C=C/c1ccc(OCCCn2cncn2)c(OC)c1	-4%	-9%
COC(=O)c1ccc(NC(=S)NC(=O)C2CCC2)cc1	-5%	8%
COc1ccc(C(=O)NNC(=O)CCc2nc3ccccc3c(=O)[nH]2)cc1	-7%	10%
COc1cc(C(O)c2nc(-c3cc4ccccc4o3)cs2)ccc1F (configuration not stated)	i	-17%
CN(C(=O)COC(=O)C1CCN(S(=O)(=O)c2ccc3c(c2)OCCO3)CC1)C1CCCCC1	-10%	-3%
Cn1c(=O)[nH]c(=O)c2c1nc(SCCN1CCOCC1)n2CCCc1ccccc1	-9%	-24%
COc1ccc(CNC(=O)c2sc3nc[nH]c(=O)c3c2C)cc1	-13%	-12%
CCn1c(C)c(C)c2cc(C(=O)NCCc3ccc(C)cc3)ccc21	-8%	-2%
CCOC(=O)CSc1nc2ccccc2c(=O)n1C	.	-20%
COc1ccc(C2CC(c3ccccc3)=NN2C(=O)CSc2nccc(=O)[nH]2)cc1 (configuration not stated)	-8%	-10%
COc1cc(NC(=O)CNc2cccc(S(=O)(=O)N3CCOCC3)c2)cc(OC)c1	-5%	-16%
CCOC(=O)N1CCN(CC(O)COc2cc(C)ccc2C(C)C)CC1 (configuration not stated)	-3%	-12%
CC(C)OC(=O)CN1C(=O)c2ccccc2C1=O	.	-7%
CCOc1ccccc1N1CCN(C(=O)NCc2ccc(C)cc2)CC1	-1%	-19%
O=C(CSc1nc2ccccc2c(=O)n1-c1ccccc1)N1CCC1	-3%	-3%
CCC1Nc2ncnc(N3CCN(c4ccccc4)CC3)c2N(Cc2ccc(Cl)cc2)C1=O (configuration not stated)	?	?

All compounds of this part, from the first entry:
SMILES	VACV mCherry inh	VACV Venus inh
C/C=C/c1ccc(OCCCn2cncn2)c(OC)c1	-4%	-9%
COC(=O)c1ccc(NC(=S)NC(=O)C2CCC2)cc1	-5%	8%
COc1ccc(C(=O)NNC(=O)CCc2nc3ccccc3c(=O)[nH]2)cc1	-7%	10%
COc1cc(C(O)c2nc(-c3cc4ccccc4o3)cs2)ccc1F (configuration not stated)	i	-17%
CN(C(=O)COC(=O)C1CCN(S(=O)(=O)c2ccc3c(c2)OCCO3)CC1)C1CCCCC1	-10%	-3%
Cn1c(=O)[nH]c(=O)c2c1nc(SCCN1CCOCC1)n2CCCc1ccccc1	-9%	-24%
COc1ccc(CNC(=O)c2sc3nc[nH]c(=O)c3c2C)cc1	-13%	-12%
CCn1c(C)c(C)c2cc(C(=O)NCCc3ccc(C)cc3)ccc21	-8%	-2%
CCOC(=O)CSc1nc2ccccc2c(=O)n1C	.	-20%
COc1ccc(C2CC(c3ccccc3)=NN2C(=O)CSc2nccc(=O)[nH]2)cc1 (configuration not stated)	-8%	-10%
COc1cc(NC(=O)CNc2cccc(S(=O)(=O)N3CCOCC3)c2)cc(OC)c1	-5%	-16%
CCOC(=O)N1CCN(CC(O)COc2cc(C)ccc2C(C)C)CC1 (configuration not stated)	-3%	-12%
CC(C)OC(=O)CN1C(=O)c2ccccc2C1=O	.	-7%
CCOc1ccccc1N1CCN(C(=O)NCc2ccc(C)cc2)CC1	-1%	-19%
O=C(CSc1nc2ccccc2c(=O)n1-c1ccccc1)N1CCC1	-3%	-3%
CCC1Nc2ncnc(N3CCN(c4ccccc4)CC3)c2N(Cc2ccc(Cl)cc2)C1=O (configuration not stated)	?	?
CC1=C(C(=O)Nc2cccnc2)C(c2ccc(Cl)cc2)n2nc(-c3ccccc3)nc2N1 (configuration not stated)	-4%	2%
COc1ccc(NC(=O)CSCC(=O)Nc2cccc3ncccc23)cc1	i	-18%
CCc1nnc(NC(=O)CN2C(=O)/C(=C/c3cc(OC)c(OC)c(OC)c3)SC2=S)s1	-7%	4%
CCc1ccc(NC(=O)CSCCO)cc1	-16%	13%
CCc1ccc2occ(CC(=O)Nc3nnc(SC)s3)c2c1	5%	4%
CCOc1cc(N2CCOCC2)c(OCC)cc1NC(=O)c1ccc(S(C)(=O)=O)cc1	-12%	-10%
O=C(CN1CCN(C(=O)c2ccccc2)CC1)Nc1ncc(Br)cc1Br	.	-17%
Cc1ccc(/C=N/NS(=O)(=O)c2ccc([N+](=O)[O-])cc2)o1	-8%	-14%
O=C(NCCO)c1cc2ccccc2c(=O)s1	.	2%
CCNC(=O)c1c(NC(=O)Cc2coc3ccc(CC)cc23)sc2c1CCCC2	-12%	-15%
CN1C(=O)CSC1=Nc1ccc(Br)cc1	-9%	-8%
O=C(NCCc1ccccc1)C(=O)NN=C1CCCC1	-7%	1%
COC(=O)[C@]12CCCCC=C1N(CCC1=CCCCC1)C(=O)[C@H](CC(=O)NCc1cccs1)C2	4%	-4%
Cc1ccc2c(=O)cc(C(=O)Nc3sc4c(c3C(=O)NCc3ccccc3)CCCC4)oc2c1C	-1%	3%
O=C(CN1C(=O)NC2(CCCC2)C1=O)N1CCN(S(=O)(=O)c2cccc(C(F)(F)F)c2)CC1	i	-22%
Cc1cc(=O)[nH]c(CCl)n1	-20%	-17%
O=C1/C(=C\c2ccc(Cl)cc2)CCC1CNc1ccc(Cl)cc1 (configuration not stated)	-13%	-7%
O=C(Nc1ccccc1)Nc1n[nH]c2nnc(-c3ccccc3)c(-c3ccccc3)c12	-8%	-11%
CCOc1ccc(C(=O)NCCN(C)C)cc1	-13%	-11%
O=C(Nc1ccc(Cl)cc1)C1CCCN(S(=O)(=O)c2ccc3[nH]c(=O)ccc3c2)C1 (configuration not stated)	-4%	6%
Cc1ccc(S(=O)(=O)NC2CC(C)(C)NC(C)(C)C2)c(C)c1C	-2%	-14%
O=C(NC(c1ccccc1)c1ccccc1)c1ccc(S(=O)(=O)C(F)F)cc1	.	-22%
Cc1cc2c(cc1C)C(c1cc(Br)ccc1F)CC(=O)N2 (configuration not stated)	-18%	?
C#CCOCCOCCOCCNc1nc(N2CCN(C(=O)[C@H](CCCCN)n3cc(CN)nn3)CC2)nc(N2CCN(C(=O)[C@H](CCCCN)n3cc(CN)nn3)CC2)n1	-13%	-8%
O=C(NCc1ccc(Cl)cc1)C1CCCN(c2ncnc3onc(-c4ccc(F)cc4)c23)C1 (configuration not stated)	-14%	-15%
COc1ccc(C2C(C#N)=C(N)N(c3ccccc3C#N)C3=C2C(=O)CCC3)cc1CN1CCCC1 (configuration not stated)	-8%	-3%
CCOC(=O)N1CCC(N(CCOC)C(=O)Nc2ccc(Cl)cc2)CC1	-6%	-14%
CC1=CN2C(=N)/C(=C/c3ccc([N+](=O)[O-])o3)C(=O)N=C2S1	53%[activator]	109%[activator]
CCOC(=O)c1cc(NC(=O)Nc2ccccc2OC)c(C)nc1C	-19%	-3%
CN1CCN(C(=O)CC2(CC(=O)O)CCCC2)CC1	-1%	1%
O=C(CCn1cnc2ccccc2c1=O)Nc1nc2c(s1)CCCC2	34%[activator]	39%[activator]
CCSc1nc(C)cc(C)c1S(=O)(=O)c1ccccc1C	.	-24%
COc1ccc(CNC(=O)CN(c2ccc(OC)cc2)S(=O)(=O)c2c(C)[nH]c(=O)[nH]c2=O)cc1	-19%	-1%
CSc1ccc(Cn2nnc(C(=O)Nc3ccc(C)c(C)c3)c2N)cc1	-12%	0%
O=C(O)c1ccc(COc2cccc(CO)c2)cc1	i	-9%
COc1ccc(CNC(=O)C(c2ccco2)N(C(=O)c2csnn2)c2cccc(C)c2C)cc1 (configuration not stated)	.	-10%
CN1CCN(C2Cc3ccccc3Sc3ccc(Cl)cc32)CC1 (configuration not stated)	?	-29%
CC1CC(C)CN(C(=O)COC(=O)/C=C/c2cccc([N+](=O)[O-])c2)C1 (configuration not stated)	-25%	-13%
COC(=O)CSc1nnc(CNC(=O)c2cccs2)n1-c1cccc(C)c1	-10%	-4%
CCC1CCCCN1CCCNC(=O)c1ccc2c(c1)c(C)c(C)n2CC (configuration not stated)	?	-21%&-13%
COc1ccccc1CNC(=O)C(=O)NCC1CCCN1S(=O)(=O)c1cccs1 (configuration not stated)	i	-6%
Cc1ccc(S(=O)(=O)N(C)CC(=O)OCC(=O)NC(c2ccccc2)c2ccccc2)cc1	-3%	-7%
Cc1cc(C)c(C(=O)CC(=O)c2cccnc2)c(C)c1	?	0%
C=CCC1CCC/C(=N\NS(=O)(=O)c2ccc(C)cc2)C1 (configuration not stated)	-9%	-9%

New compounds follow
SMILES	VACV mCherry inh	VACV Venus inh
CCc1c(C)nc(N2CCN(Cc3ccccc3)CC2)[nH]c1=O	.	-14%
COc1ccc(S(=O)(=O)NCCc2cn3cccc(C)c3n2)cc1OC	-17%	-1%
O=C(CCSCCc1ccccn1)Nc1ccc(Cc2ccncc2)cc1	i	-8%
CCCOc1ccc(-c2nc(C#N)c(N3CCN(C)CC3)o2)cc1	.	-14%
Cc1ccc(OCCn2nnc3sc4c(c3c2=O)CCC(C(C)(C)C)C4)cc1 (configuration not stated)	-1%	-10%
Cc1c(NS(=O)(=O)c2cccc(C(=O)O)c2)c(=O)n(-c2ccccc2)n1C	i	-9%
CC(=O)Nc1cc(-c2ccc(CO)cc2)cn2c(-c3ccc(F)cc3)cnc12	-12%	-4%
CCC(C)NC(=O)C1(C)CCC(=O)N1CCc1ccc(OC)c(OC)c1 (configuration not stated)	1%	-5%
CCCNC(=O)c1cc(C2CCCN(C(=O)C3CCCCC3)C2)on1 (configuration not stated)	8%	4%
O=C(Oc1ccc(C(=S)N2CCOCC2)cc1)c1cc([N+](=O)[O-])cc([N+](=O)[O-])c1	i	0%
O=C(CSc1cccc[n+]1[O-])NCCCc1ccccc1	i	-8%
COc1ccc(-c2cc(NC=O)c3ncc(-c4ccc(OC)c(OC)c4)n3c2)cc1	-14%	-18%
CCOC(=O)C1(Cc2ccc(Cl)cc2)CCN(C(=O)C2=NNC(=O)CC2)CC1	-14%	-6%
COc1cccc(NC(=O)Nc2nnc(Cc3ccc(OC)c(OC)c3)s2)c1	-26%	?
O=c1[nH]cc(I)cc1I	i	-7%
O=C1C2C3CCC(C3)C2C(=O)N1c1ccc(OS(=O)(=O)c2ccccc2)cc1 (configuration not stated)	-25%	-26%
O=C(N=C1N=C2C=CC(Br)=CN2Cc2ccccc21)c1ccc([N+](=O)[O-])cc1[N+](=O)[O-]	-20%	-8%
COc1cccc(CNC(=O)CCC2CCCN(C(=O)c3cc(C)[nH]n3)C2)c1 (configuration not stated)	i	0%
CCN(CC)C(=O)[C@H]1C[C@H](CC(=O)NCCc2ccccn2)C(=O)N2CCc3c([nH]c4ccc(Cl)cc34)[C@]12C	i	0%
COc1cccc(CNC(=O)CCNC(=O)c2ccccc2OC)c1	-14%	-4%
N#Cc1c(N)c(C(=O)c2ccccc2)n2c1CCCC2	-1%	-11%
O=C(Nc1ccc(OC(F)(F)F)cc1)C1CC(c2ccc(F)cc2)=NO1 (configuration not stated)	i	-24%
CCc1cccc(C)c1NC(=O)CN1CCN(S(=O)(=O)c2ccc(C(C)(C)C)cc2)CC1	?	-20%
O=C(OCn1nnc2ccccc2c1=O)c1cc2ccccc2o1	11%	-3%
CC1CC(C)CN(C(=O)c2nn(C)c3c2CS(=O)(=O)c2ccccc2-3)C1 (configuration not stated)	-11%	-11%
O=C(Nc1ccc2oc(-c3cccnc3)nc2c1)c1ccc(-c2ccc(Cl)cc2)o1	-6%	-4%
Cn1c2c(c3cnc4cc(Cl)ccc4c31)CN(Cc1ccc(Cl)cc1)CC2	29%	-4%
CSc1nc(-c2ccco2)nn1C(=O)c1ccc(C)cc1	-7%	-7%
COc1ccc(-n2c(SCc3ccccc3F)nc3c([nH]c4ccccc43)c2=O)cc1	-5%	-10%
COc1cc(C)c(S(=O)(=O)Nc2ccccc2F)cc1C	-14%	-4%
CN1/C(=C\C(=O)COC(=O)c2ccccc2O)C(C)(C)c2ccccc21	-7%[7.34 µM]	-14%[7.34 µM]
Cc1ccc(CC(=O)N2CC(C)OC(C)C2)cc1 (configuration not stated)	-5%	-3%
CCCc1nc([N+](=O)[O-])c(S(=O)(=O)c2ccccc2)n1CC(C)C	?	?
CC1CN(c2cc(-c3ccccc3)c3ccccc3n2)CC(C)O1 (configuration not stated)	-11%	-18%
CC1(C(=O)NS(=O)(=O)c2ccc(F)cc2F)CCN1C(=O)c1ccc(C2CCCCC2)cc1 (configuration not stated)	-29%	-14%
CC(=O)C1=C(C)N(Cc2ccccc2)C(=O)N[C@H]1CCc1ccccc1	-30%	-20%
COc1ccc(OCCOCC(O)CN2CCOCC2)cc1 (configuration not stated)	.	-16%
CN(C)/C=C1\C(=O)Nc2ccccc21	-3%	0%
COC(=O)CCSc1cc([N+](=O)[O-])cc2c1c(C1OCCO1)nn2-c1ccccc1	i	-11%
COc1ccccc1NS(=O)(=O)/C=C/c1ccccc1	-10%	-12%
C[C@]12c3[nH]c4cc(-c5ccco5)ccc4c3CCN1C(=O)[C@@H](CC(=O)NCC13CC4CC(CC(C4)C1)C3)C[C@@H]2C(=O)N1CCCCC1	11µM*	?
CC(C)(Oc1ccc(Cl)cc1)C(=O)NCc1n[nH]c(=O)c2ccccc12	i	-11%

Two entries picked at random from those above, as already listed:
SMILES	VACV mCherry inh	VACV Venus inh
COc1ccc(OCCOCC(O)CN2CCOCC2)cc1 (configuration not stated)	.	-16%
O=C(Nc1ccc2oc(-c3cccnc3)nc2c1)c1ccc(-c2ccc(Cl)cc2)o1	-6%	-4%

Bioassay records deposited in PubChem by National Center for Advancing Translational Sciences (NCATS).
